# ASM inhibitor – Inhibitors of Secretory Acid Sphingomyelinase (S-ASM): qHTS | Potency, µM (top dose mostly 57.5 µM), inactives show at the top dose activity change, negative = inhibition, hits mostly inhibitors | hit rate 0.006% among 340,000 | AID 504937, 2011 | placental ASM, HMU-PC fluorogenic substrate, 60 min | Sphingomyelin phosphodiesterase (Homo sapiens), P17405; also: potency is read from the fitted curve at half-maximal effect
#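 Fluorescence read-out (Ex 386 nm, Em 447 nm) after stopping the reaction at pH 10. Enzyme: ASM from human placenta; substrate HMU-PC0, 9 uM final; 60 min, 37 °C. Compound preincubation 10 min, ambient temperature.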
# MBNL1 CUG block – qHTS Assay for Inhibitors of MBNL1-poly(CUG) RNA binding. TR-FRET MBNL1-His/biotin-(CUG)12 binding, 665/545 ratio. Potency, µM (series often up to 57.5 µM), without a hit: at the highest dose activity change, negative = inhibition, hits mostly inhibitors. hit rate 0.036% among 280,000. AID 2675, 2010; active = well fitted inhibition curve with a large enough effect in the signal ratio, with a control signal flat, not every such curve was filed as active; inconclusive = small, poorly fitted or top-dose-only effect, or effect the other way, or a change in a side signal; inactive = no such curve, though single readings can be large or run the other way; the % refers to the signal ratio; also: potency is read from the fitted curve at half-maximal effect; % is scaled to controls: 0 for no effect and ±100 for the full control effect
# Target sequence (Q9NR56 whole entry, looked up): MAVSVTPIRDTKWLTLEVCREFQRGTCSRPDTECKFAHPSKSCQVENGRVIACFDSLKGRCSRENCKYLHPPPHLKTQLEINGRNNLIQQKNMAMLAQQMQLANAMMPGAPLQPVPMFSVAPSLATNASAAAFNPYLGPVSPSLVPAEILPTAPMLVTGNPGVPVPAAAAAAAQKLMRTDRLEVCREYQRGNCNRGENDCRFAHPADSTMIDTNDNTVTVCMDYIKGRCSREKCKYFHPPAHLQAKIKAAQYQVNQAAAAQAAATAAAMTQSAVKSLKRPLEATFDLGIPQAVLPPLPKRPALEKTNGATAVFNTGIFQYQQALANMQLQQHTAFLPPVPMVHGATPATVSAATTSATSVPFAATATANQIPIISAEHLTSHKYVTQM
#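 Ratiometric TR-FRET (665 over 545 nm, excitation 340 nm) tracks disruption of MBNL1-His/biotin-(CUG)12 complex after 60 min at room temperature, with compounds at 92 nM to 58 uM final.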
# KCNH2 3.1 block – qHTS for Inhibitors of KCHN2 3.1: Mutant qHTS; U2OS KCNH2 3.1, thallium flux FluxOr; stronger effect = lower value; activity change, % (tested at about 1.8 µM); hit rate 0.95% among 340,000; AID 720553, 2013;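 active = maximum activity change below -70%; inconclusive = maximum activity change from -70% to -50%; inactive = maximum activity change above -50%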;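 also: thallium influx rate constant from kinetic fluorescence after stimulation buffer; % is scaled to controls: 0 for no effect and ±100 for the full control effect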
#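 Channel expression came from 3.1 mutant virus (1.77 x 10^8 /mL) applied to suspended U2OS cells for 4 h. Flux was tracked with FluxOr dye plus Red40 quencher, and kinetic rate constants normalized to controls.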
# Integrin act MD – qHTS for Activators of Integrin-Mediated Alleviation for Muscular Dystrophy; AID 624291, 2012; alpha7betagal myoblasts, beta-gal FDG fluorescence, 48 h; Potency, µM (highest dose often 38.3 µM), for inactives: top-dose activation, most hits filed as activators; hit rate 0.064% among 350,000;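 also: potency is read from the fitted curve at half-maximal effect; 100% = response of the positive control SU9516; nearly all actives have a fitted effect of over 60% in size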
#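 alpha7betagal+/- myoblasts (passage 13, 250/well) treated 48 h at 37C with compounds at 1:260 dilution of DMSO stock. Lysed, then beta-galactosidase activity read as FDG fluorescence (ex 480/em 540) after 30 min, with pre-read for autofluorescence.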
# TRPV1 ag – HTS Assay for Compounds that Act as Agonists of the Vanilloid Receptor 1. TRPV1-expressing cells, Fluo-8 calcium influx, agonist mode. hit rate 0.19% among 320,000. activation, % at 8.33 µM. Transient receptor potential cation channel subfamily V member 1 (Homo sapiens), Q8NER1; in the data active = activation above about 80%; inconclusive = between about 30% and that limit; also: 0% is about no effect
#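 Cells expressing TRPV1 were dye-loaded with Fluo-8 and read kinetically: 10 s baseline, 3 min after compound (agonist portion), then 2 min after EC20 capsaicin (allosteric enhancer portion). Calcium-bound dye fluorescence at 480/520 nm.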
# AT treatment – qHTS Assay for Identifying a Potential Treatment of Ataxia-Telangiectasia; […] A-T fibroblasts, KAP-1 phosphorylation AlphaLISA; neocarzinostatin DNA damage 30 min before lysis; Potency, µM (series often up to 57.5 µM), inactives show top-dose activation, hits mostly activators; hit rate 0.19% among 320,000; also: potency is read from the fitted curve at half-maximal effect; % of control where 0% means no effect; nearly all actives have a fitted effect of over 45% in size
#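 ATM-like activity read as KAP-1 phosphorylation via AlphaLISA donor/acceptor antibody pairs after lysis and 6 hr at 25C. Cells were ATM-null patient fibroblasts ([…], hTERT), dosed 60 min, then exposed to the DSB inducer NCS for 30 min.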
# CXXC DNA block – qHTS Fluorescence Polarization Assay for Inhibitors of MLL CXXC domain - DNA interaction; Potency, µM (highest dose often 115 µM), inactives show at the highest dose activity change, negative = inhibition, actives largely listed as inhibitors; hit rate 0.037% among 290,000; MLL-CXXC / FITC-HOXA9 DNA fluorescence polarization; active = well fitted inhibition curve with a large enough effect in the polarisation, with a control signal flat, not every such curve was filed as active; inconclusive = small, poorly fitted or top-dose-only effect, or effect the other way, or a change in a side signal; inactive = no such curve, though single readings can be large or run the other way; the % refers to the polarisation; also: potency is read from the fitted curve at half-maximal effect
#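 Steps: dispense CXXC domain solution (7 uM) → pin compounds or unlabeled HOX-A9 DNA control → 5 min ambient → add FLSN-HOX-A9 solution (50 nM) → spin → 30 min ambient → fluorescence polarization. Tris pH 7.5/NaCl/DTT/BSA buffer.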
# FBPA coupling cs – qHTS Assay for Inhibitors of Fructose-1,6-bisphosphate Aldolase from Giardia Lamblia: Coupling assay counterscreen. activity change, negative = inhibition, % at 58.2 µM, hits read low. AID 2472, 2010. coupling enzyme system counterscreen, AmpLite Red fluorescence. hit rate 0.67% among 290,000; in the data active = activity change below about -30%; also: % is scaled to controls: 0 for no effect and ±100 for the full control effect
#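 Counterscreen of the coupled detection system alone, without aldolase: glyceraldehyde-3-phosphate coupling enzymes plus AmpLite Red readout. Compounds at 57.5 uM final, 10 min RT preincubation, 20 min RT reaction, fluorescence 525/598 nm.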
# GALK inh – qHTS Assay for Inhibitors of Human Galactokinase (GALK). P51570. Purified GALK, Kinase-Glo residual ATP luminescence. Potency, µM (doses to about 57.5 µM), without a hit: at the highest dose activity change, negative = inhibition, actives largely listed as inhibitors. hit rate 0.007% among 270,000. AID 1868, 2009; also: potency is read from the fitted curve at half-maximal effect; % is scaled to controls: 0 for no effect and ±100 for the full control effect
#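 Kinase-Glo Plus luminescence measured ATP left after a 1 h room-temperature reaction. The reaction used 5 nM GALK, 100 uM galactose and 35 uM ATP at pH 8.0 (20 mM HEPES, 5 mM MgCl2, 60 mM NaCl, 1 mM DTT, 0.01% BSA).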
# Active calls of the source: *; ? = inconclusive; / = no result given; & = joins results of further samples. Unless noted, calls follow the shape of the dose curve; as a rule, active = well fitted curve in the direction sought with a large enough effect; inconclusive = small, poorly fitted or top-dose-only effect, or another doubt; inactive = no such curve, though single readings can be large; an effect the other way counts as inactive or inconclusive.
1) Cc1ccccc1CSCCNC(=O)CSCc1ccc([N+](=O)[O-])cc1
2) COc1ccc(C(=O)NCc2cccnc2)cc1C(=O)NCc1cccnc1
3) Cc1ccc(S(=O)(=O)N(CC(=O)O)Cc2ccccc2)cc1
4) O=c1oc2cc(O)ccc2cc1S(=O)(=O)c1ccccc1
5) OC1C(O)C(O)C(O)C(O)C1O (configuration not stated)
6) Nc1ncnc2c1ncn2C1OC(CO)C(O)C1O (configuration not stated)
7) CC(=O)C[C@@H](c1ccccc1)c1c(O)c2ccccc2oc1=O
8) C[C@@H]1CCc2cc(F)cc3c(=O)c(C(=O)O)cn1c23
9) COC(=O)C1=C(C)NC(C)=C(C(=O)OCCN(C)Cc2ccccc2)[C@H]1c1cccc([N+](=O)[O-])c1
10) CN/C(=C\[N+](=O)[O-])NCCSCc1ccc(CN(C)C)o1
11) Cc1cc(C)c(/C=C2\C(=O)Nc3ccccc32)[nH]1
12) CCC(=O)OCC(=O)C1(OC(=O)CC)[C@H](C)C[C@H]2[C@H]3[C@H]([C@@H](O)C[C@@]21C)[C@@]1(C)C=CC(=O)C=C1C[C@H]3Cl (some centres not stated)
assay / entry | 1 | 2 | 3 | 4 | 5 | 6 | 7 | 8 | 9 | 10 | 11 | 12
Integrin act MD | 10% | / | 15% | ? | / | 23% | / | / | / | / | / | /
TRPV1 ag | ? | 1 | 2 | 0 | 0&-2&0 | 2 | / | / | / | 2 | 12 | 1
FBPA coupling cs | / | 1 | 10 | 11 | 2 | 2&0&4 | 10 | -1 | 0 | 5&-3&-5 | -3 | /
GALK inh | -4% | / | -1% | 4% | / | 2% | / | / | / | / | / | /
MBNL1 CUG block | 8% | / | -23% | ? | / | -2% | / | / | / | / | 13% | /
KCNH2 3.1 block | -2 | 5 | 6 | 6 | -2&4&1 | 1 | / | / | / | 7 | -10 | 12
CXXC DNA block | 3% | -6% | -4% | 0% | 6% | 2% | / | / | / | -4% | ? | /
AT treatment | 1% | -13% | -1% | ? | -14%&-13%&-3% | 0% | / | / | / | -10% | -4% | 1%
ASM inhibitor | -2% | -1% | 2% | 46% | 0%&-1%&2% | -3% | / | / | / | 2% | -23% | 3%

# 4 entries from above, with two lines to a compound.
# Each structure is followed by: Integrin act MD | TRPV1 ag | FBPA coupling cs | GALK inh | MBNL1 CUG block | KCNH2 3.1 block | CXXC DNA block | AT treatment | ASM inhibitor
[1] Cc1ccccc1CSCCNC(=O)CSCc1ccc([N+](=O)[O-])cc1
  10% | ? | / | -4% | 8% | -2 | 3% | 1% | -2%
[2] COc1ccc(C(=O)NCc2cccnc2)cc1C(=O)NCc1cccnc1
  / | 1 | 1 | / | / | 5 | -6% | -13% | -1%
[3] Cc1ccc(S(=O)(=O)N(CC(=O)O)Cc2ccccc2)cc1
  15% | 2 | 10 | -1% | -23% | 6 | -4% | -1% | 2%
[4] O=c1oc2cc(O)ccc2cc1S(=O)(=O)c1ccccc1
  ? | 0 | 11 | 4% | ? | 6 | 0% | ? | 46%

# Random excerpt: 2 compounds from above.
10) CN/C(=C\[N+](=O)[O-])NCCSCc1ccc(CN(C)C)o1
7) CC(=O)C[C@@H](c1ccccc1)c1c(O)c2ccccc2oc1=O
assay / entry | 10 | 7
Integrin act MD | / | /
TRPV1 ag | 2 | /
FBPA coupling cs | 5&-3&-5 | 10
GALK inh | / | /
MBNL1 CUG block | / | /
KCNH2 3.1 block | 7 | /
CXXC DNA block | -4% | /
AT treatment | -10% | /
ASM inhibitor | 2% | /

# Screening results (PubChem)

# Not all compounds are listed; rates above refer to the full screens.
